E coli growth = E. coli growth inhibition, primary screen, OD600; OD600 absorbance (test concentration not listed); 0.21% of 330,000 active; Escherichia coli growth, 23 h; stronger effect = lower value;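 active = OD600 absorbance below the run mean of sample wells minus 3.6 SD, in any replicate, cut at about 0.56 in these data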;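 note: stock transfer was 300 nL into about 60 µL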
Vif TR-FRET = inhibitors of Vif binding to APOBEC3G peptide, primary screen, biochemical, TR-FRET, GST-Vif 1-94, biotin-A3G peptide, dose response retest (AID 1117319); Virion infectivity factor (Human immunodeficiency virus type 1 group M subtype B (isolate …; TR-FRET GST-Vif / biotin-A3G peptide binding; higher % means a stronger effect; test concentration not given here; strong numbers were not always called active; inhibition, %; hits with a dose series show IC50 in µM; 0.57% of 260,000 active;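 active = above the screen mean plus three standard deviations and confirmed in dose response; inconclusive = results disagree or hit not tested in dose response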;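 note: Vif residues 1-94 fused to GST binding biotinylated APOBEC3G peptide 110-148; 0% = full assay without inhibitor and 100% = GST in place of GST-Vif; retest series ran down from 100 µM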
ALR inh = inhibitors of human ALR sulfhydryl oxidase, primary screen, biochemical, H2O2 detection, HRP-luminol luminescence, single point. purified ALR, DTT oxidation. inhibition, % (concentration not given with the values). 3.8% of 290,000 active. AID 485317, 2010;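 active = mean and each replicate at 75% or more; inconclusive = only one of the two met; inactive = neither met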;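 note: stock transfer was 7.5 nL into about 7.5 µL; 0% = neutral wells and 100% = wells with inactivated enzyme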
rRNA inh HTS = reduced GFP signal of wild-type E. coli, primary screen, bacterial rRNA inhibitor project, GFP/RFP fluorescence, OD600, single point | E. coli WT GFP vs humanized-ribosome RFP mutants, 24 h; stronger effect = lower value; DMSO median 0, no signal -100 | GFP signal change (wild-type ribosome), % (concentration not given with the values) | 1.6% of 350,000 active;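 active = significant combined selectivity score with lowered wild-type GFP, culture density cut under 30%, mutant RFP and density less affected; inactive = any of these conditions unmet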; note: one replicate is shown; some compounds called inactive have numbers as strong as hits
HNF4A DNA FP = change in binding of human HNF4A to DNA, primary screen, biochemical, fluorescence polarization, FITC-DNA | 1 h | activity change, % at 10 µM | 0.3% of 360,000 active; in the data active = activity change above about 30%, passing the limit was not always enough;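 note: controls were the assay level and a saturating level of protein; the project sought stronger binding though the title names inhibitors; some compounds called inactive have numbers as strong as hits; positive values seem to mean higher polarization but the record does not say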
Target sequence (P41235 whole entry, looked up): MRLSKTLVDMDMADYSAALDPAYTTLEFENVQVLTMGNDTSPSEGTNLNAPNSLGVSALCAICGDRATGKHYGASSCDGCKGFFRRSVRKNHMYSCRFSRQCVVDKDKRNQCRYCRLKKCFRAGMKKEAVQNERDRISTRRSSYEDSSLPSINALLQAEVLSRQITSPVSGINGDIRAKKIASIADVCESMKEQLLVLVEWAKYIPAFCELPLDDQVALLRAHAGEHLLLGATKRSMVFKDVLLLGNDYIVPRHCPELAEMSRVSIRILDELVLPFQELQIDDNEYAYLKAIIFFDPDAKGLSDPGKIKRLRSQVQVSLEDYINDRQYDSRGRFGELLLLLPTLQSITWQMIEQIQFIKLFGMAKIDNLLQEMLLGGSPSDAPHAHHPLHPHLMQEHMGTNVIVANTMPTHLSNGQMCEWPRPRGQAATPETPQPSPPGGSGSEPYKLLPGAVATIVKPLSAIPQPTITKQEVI
AF4-AF9 inh = inhibitors of AF4 peptide binding to AF9, primary screen, biochemical, AlphaScreen, biotin-AF4 peptide, FLAG-AF9, single point; Protein AF-9 (Homo sapiens), P42568; inhibition, % at 10 µM; 0.47% of 350,000 active;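 active = every replicate reaching a set inhibition limit, whatever the replicate mean, cut at about 25% in these data; inconclusive = mean inhibition reaches that limit but some replicates miss it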;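 note: 0% = plate neutral control median and 100% = total signal loss; the record names both 10 and 1 µM as test concentration; the first replicate is given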
Target sequence (P42568 whole entry, looked up): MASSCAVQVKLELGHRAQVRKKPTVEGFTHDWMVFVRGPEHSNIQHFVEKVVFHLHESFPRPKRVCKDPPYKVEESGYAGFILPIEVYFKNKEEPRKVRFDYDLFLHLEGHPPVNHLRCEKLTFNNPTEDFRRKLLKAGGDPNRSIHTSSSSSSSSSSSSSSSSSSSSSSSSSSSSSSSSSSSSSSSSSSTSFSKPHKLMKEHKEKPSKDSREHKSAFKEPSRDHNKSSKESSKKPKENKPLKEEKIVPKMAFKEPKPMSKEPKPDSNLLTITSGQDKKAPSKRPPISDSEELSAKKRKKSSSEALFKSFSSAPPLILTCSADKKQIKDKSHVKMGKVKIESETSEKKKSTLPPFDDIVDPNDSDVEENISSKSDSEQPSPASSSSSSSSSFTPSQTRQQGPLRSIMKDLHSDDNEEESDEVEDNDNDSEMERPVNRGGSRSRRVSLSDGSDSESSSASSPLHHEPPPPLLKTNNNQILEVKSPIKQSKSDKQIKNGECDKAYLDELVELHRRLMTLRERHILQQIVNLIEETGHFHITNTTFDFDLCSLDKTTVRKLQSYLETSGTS
FGF22 binding = binders of human FGF22 protein, primary screen, FGF22 synaptogenesis inhibitor project, biophysical, thermal shift, single point | calls only at 9.99 µM | 1.5% of 340,000 active | Fibroblast growth factor 22 (Homo sapiens), Q9HCT0 | recombinant FGF22 thermal shift, SYPRO orange fluorescence; percent of sucrose octasulfate shift, DMSO zero;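 active = melting point raised past a set limit in the mean and every replicate; inconclusive = no clear call; three in four hits are not shown here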
rRNA inh HTS OD600 = further read-out of rRNA inh HTS, marked with its call; OD600 change, %; measured here: OD600 growth;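 optical density of the mix in the first replicate; 0 = DMSO median and -100 = no signal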
rRNA inh HTS RFP = second read-out of rRNA inh HTS, no call of its own (marks repeat the call); RFP signal change, %; measured here: RFP humanized mutant strains;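 first replicate; 0 = DMSO median and -100 = no signal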
Starred values were filed as active, the others as inactive; i = inactive; ? = inconclusive; · = no result given; + = active, no number; & = joins results of further samples.

SMILES	E coli growth	Vif TR-FRET	ALR inh	rRNA inh HTS	rRNA inh HTS OD600	rRNA inh HTS RFP	HNF4A DNA FP	AF4-AF9 inh	FGF22 binding
N#Cc1cccc(CN2C=NS(=O)(=O)c3ccccc32)c1	0.694	-6.3%	·	6.4	10.3	4.9	-1.2	2.1	i
Cc1cccc(OCc2nnc(SCC(=O)c3c(N)n(C4CC4)c(=O)[nH]c3=O)o2)c1	0.714	0.7%	·	2.9	11.7	1.0	0.1	-2.1	i
C[C@H]1CN([C@@H](C)CO)C(=O)CCCn2cc(nn2)CO[C@H]1CN(C)Cc1ccc(-c2ccccc2)cc1	·	·	·	-2.1	-7.3	-0.9	·	2.6	i
Cc1ccc(C)c(NC(=O)CSc2nc(=O)n(CCN3CCOCC3)c3c2CCCC3)c1	0.69	-2.0%	-0.6	1.4	11.2	-2.3	1.9	-0.4	i
Cc1ccc(CCNC(=O)C2CCCN(C(=O)N(C)C)C2)cc1 (centres undefined)	0.661	6.1%	-12.6	10.9	0.6	2.7	1.1	3.7	i
Cc1c(Cl)cccc1NC(=S)NCc1cccn1C	0.684	3.9%	-2.7	·	·	·	-1.2	·	·
O=c1c(-c2ccccc2)coc2c(CN3CCOCC3)c(O)ccc12	0.755	-1.6%	-4.9	·	·	·	1.9	·	·
O=C(NCCN1CCOCC1)c1ccncc1	0.686	-7.0%	·	·	·	·	-2.2	·	·
NC(=O)CC(NC(=O)Cc1ccc(Br)cc1)c1ccc(NC2CCCC2)c([N+](=O)[O-])c1 (centres undefined)	0.713	10.5%	1.7	·	·	·	49.9*	·	·
CC(C(=O)O)n1ncc2ccccc2c1=O (centres undefined)	0.724	-1.0%	·	7.7	0.8	-2.6	-1.4	?	i
O=C1c2ccccc2-c2cccc(C(=O)N3CCCCC3)c21	0.658	7.7%	-9.7	-15.9	-1.0	1.1	0.4	·	i
O=C(O)CCc1ccc(-c2cccs2)n1CCC(=O)O	0.76	?	-11.0	·	·	·	-4.4	·	·

Reformatted: three of the compounds above
Values run as follows: E coli growth | Vif TR-FRET | ALR inh | rRNA inh HTS | rRNA inh HTS OD600 | rRNA inh HTS RFP | HNF4A DNA FP | AF4-AF9 inh | FGF22 binding
NC(=O)CC(NC(=O)Cc1ccc(Br)cc1)c1ccc(NC2CCCC2)c([N+](=O)[O-])c1 (centres undefined)
 : 0.713 | 10.5% | 1.7 | · | · | · | 49.9* | · | ·
CC(C(=O)O)n1ncc2ccccc2c1=O (centres undefined)
 : 0.724 | -1.0% | · | 7.7 | 0.8 | -2.6 | -1.4 | ? | i
O=C1c2ccccc2-c2cccc(C(=O)N3CCCCC3)c21
 : 0.658 | 7.7% | -9.7 | -15.9 | -1.0 | 1.1 | 0.4 | · | i

The listing continues.
SMILES	E coli growth	Vif TR-FRET	ALR inh	rRNA inh HTS	rRNA inh HTS OD600	rRNA inh HTS RFP	HNF4A DNA FP	AF4-AF9 inh	FGF22 binding
CCOC(=O)N1CCC(=C(C#N)C(=O)Nc2cc(OC)ccc2OC)CC1	0.646	9.9%	·	-3.0	-5.6	-1.5	2.4	0.8	i
CN1CCN(C(=O)CSc2nc3c(c(=O)n(C)c(=O)n3C)n2C)CC1	0.664	·	6.1	4.7	6.3	-2.9	-2.2	-13.1	i
Cc1ccc(/C=N/n2c(-c3ccco3)n[nH]c2=S)cc1	·	-6.5%	63.0	2.5	2.2	1.5	28.6	-3.3	i
C[C@H](CO)N1C[C@H](C)[C@@H](CN(C)C(=O)C2CCC2)Oc2ncc(C#Cc3cccc(F)c3)cc2C1=O	·	·	·	-3.5	-23.9	20.2	·	1.4	i
CCC(C)NS(=O)(=O)c1ccc(NC(=O)c2c(-c3ccccc3)noc2C)cc1 (centres undefined)	0.756	21.4%	27.5	-9.1	-17.4	1.0	-1.7	0.8	i
Cc1cccc(NC(=O)CSc2nc3[nH]ncc3c(=O)[nH]2)c1	0.69	-3.6%	1.7	·	·	·	5.8	-8.6	i
Cc1noc(C)c1-c1ccc(C(=O)NCc2ccc(Cl)cc2)c2occc12	·	·	·	-18.8	-35.1	-8.9	2.9	-4.1	i
COc1ccc2cc(C3(C)NC(=O)N(CC(=O)NCC(F)(F)F)C3=O)ccc2c1 (centres undefined)	0.756	-5.9%	-1.9	0.9	3.7	-3.6	1.9	0.8	i
CC1(C(=O)NS(=O)(=O)Cc2ccccc2C(F)(F)F)CCN1C(=O)c1ccccc1 (centres undefined)	·	·	·	1.4	4.3	-0.3	1.4	-0.3	i
CCCn1c(=O)c2c(nc3n2CCCN3CCc2ccccc2)n(C)c1=O	0.677	4.9%	19.1	-2.7	-10.4	-1.0	0.4	5.6	i
O=C(Nc1ccccc1F)N1CCCCN2[C@H](C1)[C@H](c1ccc(-c3cccnc3)cc1)[C@@H]2CO	·	·	·	-6.2	1.9	-1.4	·	-2.3	i
COc1ccc(C(=O)NCC(=O)OCc2ccccc2F)cc1	0.704	-5.5%	-1.0	5.1	3.9	4.0	-3.3	-1.1	·
CCCS(=O)(=O)NC(=O)C1(C)CCN(C(=O)Cc2ccc3ccccc3c2)C1 (centres undefined)	·	·	·	0.0	7.9	-1.9	0.8	-1.9	i
C=CCOc1ccc(C(=O)Nc2ccc3c(c2)n(C)c(=O)n3C)cc1	0.597	·	-6.1	-10.5	-7.8	3.0	2.6	9.1	i
Cn1c(NNC(=O)/C=C/c2ccc3c(c2)OCO3)cc(=O)n(C)c1=O	0.702	·	-14.1	0.7	3.3	-6.1	-4.8	6.3	·
O=C(CC1SC(=O)NC1=O)Oc1ccc(/C=N/NC(=O)c2ccccc2O)cc1 (centres undefined)	·	5.8%	99.0*	6.3	-5.8	-2.9	2.2	-0.5	i
N/C(=N\OCC(=O)Nc1ccc(F)c(Cl)c1)c1ccccc1	0.618	·	-5.1	·	·	·	1.4	-3.2	+
COCCNC(=S)N(CCO)Cc1cc2cc3c(cc2[nH]c1=O)OCO3	0.67	-5.4%	-18.9	-2.3	0.1	-3.3	2.8	-2.1	i
C[C@@H]1CN([C@H](C)CO)C(=O)CCCn2nncc2CO[C@H]1CN(C)S(C)(=O)=O	·	-6.4%	·	0.6	1.8	-1.8	-2.2	0.1&-1.6	i
O=C(NC1CCCC1)C(c1ccccc1)N(C(=O)c1csnn1)c1ccccc1F (centres undefined)	0.641	-13.2%	6.0	2.4	5.9	1.3	2.5	0.1	·
O=c1oc2c(CN3CCCCC3)c(O)ccc2c2c1CCCCC2	0.702	?	4.4	·	·	·	-1.9	7.7	·
Cc1ccccc1OCCCCCNCCO	0.715	-1.1%	·	-2.8	-4.2	1.8	0.7	10.1	i
O=C(Nc1ccc(S(=O)(=O)N2CCCCC2)cc1)C1CC(=O)N(c2ccc(F)cc2)C1 (centres undefined)	0.648	·	·	-1.2	-15.1	2.8	-4.3	-6.3	i
O=C(O)c1cc(-c2ccccc2)n(-c2ccc(F)cc2)n1	0.675	·	·	-3.2	-0.6	0.1	2.3	0.4	i
CC1OC(OC2C(CO)OC(OCC3OC(OC(=O)[C@@]45CCC(C)(C)C[C@@H]4C4=CC[C@@H]6[C@@]7(C)CCC(OC8OCC(O)C(O)C8OC8OC(C)C(O)C(O)C8O)[C@@](C)(CO)C7CC[C@@]6(C)[C@]4(C)CC5)C(O)C(O)C3O)C(O)C2O)C(O)C(O)C1O (some centres undefined)	·	·	·	15.2	16.1	0.9	-1.1	-1.3	i
CC(OC(=O)CC(NC(=O)c1ccccc1Cl)c1ccccc1)C(=O)Nc1cccc(Cl)c1Cl (centres undefined)	0.763	·	-5.5	·	·	·	-0.9	·	·
COC(=O)N=Nc1c(O)n(Cc2ccccc2)c2ccccc12	0.667	16.5%	·	4.3	4.3	0.5	-2.1	-141.7	i
CCn1nc(C(=O)Nc2ccccc2C)c(Cl)c1Cl	0.672	-5.3%	-5.9	·	·	·	-3.0	·	·
O=c1[nH]nc(Cc2ncc(C(F)(F)F)cc2Cl)c2ccccc12	0.692	43.7%	-1.7	4.5	4.3	-2.2	-2.8	-5.8	i
COc1ccc(OCCSc2nnc(-c3ccoc3C)n2C)cc1	0.653	4.9%	-7.9	·	·	·	-1.1	·	·
Cc1oncc1C(=O)Nc1cccc2ccccc12	0.716	·	·	-2.6	9.6	-0.1	-4.5	-0.2	i
O=C(O)CCC(=O)N(Cc1cccnc1)Cc1cccc(F)c1	0.672	-0.4%	-21.2	·	·	·	-6.7	·	·
O=C(CSc1nnc(-c2ccc3c(c2)OCO3)n1-c1ccccc1)c1ccccc1	0.723	1.9%	-2.0	5.3	14.5	-2.4	1.7	3.5	i
CC1CC(C)CN(C(=O)c2ccc(CSc3nc4ccncc4[nH]3)cc2)C1 (centres undefined)	0.687	-1.3%	-20.9	-11.5	-22.3	-0.3	3.9	-14.8	i
O=C1CCc2cc(S(=O)(=O)N3CCN(c4cccc(C(F)(F)F)c4)CC3)ccc2N1	0.72	?	-0.4	9.7	5.2	-1.9	-1.9	0.7	i
Cc1[nH]c2ccccc2c1C(=O)COC(=O)CCS(=O)(=O)c1ccccc1Cl	0.677	-8.2%	3.1	·	·	·	-1.7	·	·
COc1ccccc1-c1ccc2c(c1)O[C@@H](CN(C)C(C)=O)[C@@H](C)CN([C@H](C)CO)S2(=O)=O	·	·	·	-1.2	0.8	-3.4	·	-4.7	i
COc1ccc(OC)c(NC(=O)Cc2coc3cc(C)cc(C)c23)c1	0.748	2.9%	14.9	·	·	·	4.2	·	·
CS(=O)(=O)N(CC(=O)O)Cc1cccc(CN(CC(=O)O)S(C)(=O)=O)c1	0.636	·	2.9	0.2	8.5	16.1	-0.6	-1.5	i
CN(C)CCNc1ccc2ncn3c4ccc(O)cc4c(=O)c1c23	·	·	·	·	·	·	-153.5	33.8*	i
O=C(/C=C/c1ccc2c(c1)OCO2)Nc1cccnc1	0.652	1.1%	-16.8	-14.0	0.2	2.2	-0.6	0.7	i
CC(C)CC#Cc1ccc2c(c1)O[C@H](CN(C)Cc1cccc(F)c1)[C@H](C)CN([C@H](C)CO)S2(=O)=O	·	·	·	2.6	4.3	0.3	·	0.6	i
Brc1ccccc1-c1nnc(COc2ncnc3c2cnn3-c2ccccc2)o1	0.75	-0.1%	-4.0	·	·	·	3.0	·	·
C[C@H](NC(=O)C[C@@H]1CC[C@@H]2[C@H](COC[C@@H](O)CN2Cc2ccc(C(F)(F)F)cc2)O1)c1ccccc1	·	·	·	-6.1	-13.2	-3.2	·	0.7	i
Cc1cccc(Oc2ccccc2NS(=O)(=O)c2ccc(CCC(=O)O)cc2)c1	0.69	7.6%	54.0	-13.8	-27.4	-3.3	-2.6	1.8	i
CN(C)c1nc(C=C(C#N)C#N)c(Cl)n1-c1ccc(F)cc1	0.712	25.6%	·	5.1	12.2	7.2	-2.2	6.8	i
ON=Cc1ccnc2ccccc12	·	-3.5%	·	-0.7	4.5	-4.7	3.7	0.6	i

Quoted at random: 2 entries already listed, in no set order.
SMILES	E coli growth	Vif TR-FRET	ALR inh	rRNA inh HTS	rRNA inh HTS OD600	rRNA inh HTS RFP	HNF4A DNA FP	AF4-AF9 inh	FGF22 binding
COc1ccc(OC)c(NC(=O)Cc2coc3cc(C)cc(C)c23)c1	0.748	2.9%	14.9	·	·	·	4.2	·	·
O=C(/C=C/c1ccc2c(c1)OCO2)Nc1cccnc1	0.652	1.1%	-16.8	-14.0	0.2	2.2	-0.6	0.7	i

From PubChem BioAssay

An excerpt; count on the stated rates, not on these rows.
